Six1-Eya2 inh = blocks human Six1 binding to Eya2; activity change, % (no concentration beside the values); Q15475+O00167; actives 0.56% (n = 360,000); AlphaScreen GST-Six1/His-Eya2 binding, biochemical; stronger effect = lower value; control for the full effect not named in the record; in the data active = activity change below about -65%; inconclusive = about -30% to -65%; inactive = above about -30%; note: % is set by controls: 0 for no effect and ±100 for the full control effect; compound concentration not given in the record
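Six1/Eya2 binding was read as AlphaScreen signal after compounds were pinned into GST-Six1 plus His-tagged Eya2 (5X stock 250/500 nM) in pH 8.0 Tris/NaCl/TCEP buffer, beads added, then incubated 1 h, 37 C, dark.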
PINK1 expr mod = modulators of PINK1 expression. PINK1 immunofluorescence, high-content cytometry, 24 h. Potency, µM (series often up to 76.6 µM), without a hit: top-dose activation (PINK1 increase), hits mostly activators. actives 0.2% (n = 410,000); active = well fitted activation curve with a large enough effect; inconclusive = small, poorly fitted or top-dose-only effect; inactive = flat fitted curve, though single readings scatter; cell line not stated here;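 note: potency is the fitted concentration of half-maximal effect; % of control where 0% means no effect; nearly all actives have a fitted effect of over 65% in size; a mitochondrial uncoupler was the plate control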
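Decision-based qHTS: stable cells, 24 h exposure to five compound concentrations, CCCP as control. Fixed cells stained for PINK1 plus nuclear, mitochondrial and cell markers, cytometer read.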
TRPML1 inh = blocks the human TRPML1 channel | TRPML1-inducible cells, Ca2+ dye fluorescence, FDSS; stronger effect = lower value; inhibition of EC80 agonist-evoked calcium signal | actives 0.02% (n = 390,000) | activity change, negative = inhibition, % (no concentration beside the values) | AID 624415; in the data active means activity change below about -50%; inconclusive means about -30% to -50%; inactive means above about -30%;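 note: stimulus is agonist 54-4 at its EC80 concentration; % is set by controls: 0 for no effect and ±100 for the full control effect; compound concentration not given in the record; the text of the record puts the active cut at -80%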
Target sequence (Q9GZU1 whole entry, looked up): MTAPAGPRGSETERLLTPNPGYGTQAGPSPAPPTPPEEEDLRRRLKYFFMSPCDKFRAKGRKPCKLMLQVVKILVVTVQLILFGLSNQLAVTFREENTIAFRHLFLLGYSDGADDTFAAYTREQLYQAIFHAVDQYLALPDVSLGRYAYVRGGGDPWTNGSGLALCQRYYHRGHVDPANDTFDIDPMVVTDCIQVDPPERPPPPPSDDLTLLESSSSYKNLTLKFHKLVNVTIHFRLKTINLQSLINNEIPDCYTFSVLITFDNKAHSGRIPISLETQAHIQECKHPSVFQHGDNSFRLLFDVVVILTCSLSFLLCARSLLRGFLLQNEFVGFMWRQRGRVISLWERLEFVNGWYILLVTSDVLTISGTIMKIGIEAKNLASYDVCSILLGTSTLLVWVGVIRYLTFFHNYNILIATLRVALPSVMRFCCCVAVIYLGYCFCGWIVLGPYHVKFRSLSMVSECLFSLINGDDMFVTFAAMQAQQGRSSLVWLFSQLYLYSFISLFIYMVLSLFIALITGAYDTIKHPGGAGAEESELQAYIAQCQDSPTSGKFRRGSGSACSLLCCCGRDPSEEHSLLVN
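TRPML1-DL cells, Tet-induced overnight (~16 h, 37 °C) at 1,500 cells/well, were loaded with Ca8 no-wash dye plus quencher for 45-90 min at room temperature. Compounds were pinned during FDSS kinetic reading; agonist 54-4 at EC80 (4 uM final) then added.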
TRPML1 agonist = human mucolipin-1 channel agonism. Q9GZU1. TRPML1-expressing cells, Ca2+ dye fluorescence, FDSS; host cell line not named in the record; reference of the full effect not given here. activation, % (concentration not given with the values). actives 0.12% (n = 410,000); in the data active = activation above about 50%; inconclusive = about 30% to 50%; inactive = below about 30%; note: 0% is about no effect; the text of the record puts the active cut at 80%
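Tetracycline-induced TRPML1-DL cells are seeded and incubated overnight before loading with a no-wash Ca2+ dye and quencher. Agonist activity is taken from the 110 s fluorescence read following compound pin-transfer on an FDSS, before EC80 54-4 challenge.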
D2 ag = activates the human D2 dopamine receptor. P14416. DiscoveRx PathHunter D2 beta-arrestin, luminescence, 90 min; 100% = 57 uM dopamine signal. activation, % (test concentration not listed). actives 0.084% (n = 360,000). AID 624465; in the data active = activation above about 40%; inconclusive = about 15% to 40%; inactive = below about 15%; note: compound concentration not given in the record; the text of the record calls up to 30% inactive
Target sequence (P14416 whole entry, looked up): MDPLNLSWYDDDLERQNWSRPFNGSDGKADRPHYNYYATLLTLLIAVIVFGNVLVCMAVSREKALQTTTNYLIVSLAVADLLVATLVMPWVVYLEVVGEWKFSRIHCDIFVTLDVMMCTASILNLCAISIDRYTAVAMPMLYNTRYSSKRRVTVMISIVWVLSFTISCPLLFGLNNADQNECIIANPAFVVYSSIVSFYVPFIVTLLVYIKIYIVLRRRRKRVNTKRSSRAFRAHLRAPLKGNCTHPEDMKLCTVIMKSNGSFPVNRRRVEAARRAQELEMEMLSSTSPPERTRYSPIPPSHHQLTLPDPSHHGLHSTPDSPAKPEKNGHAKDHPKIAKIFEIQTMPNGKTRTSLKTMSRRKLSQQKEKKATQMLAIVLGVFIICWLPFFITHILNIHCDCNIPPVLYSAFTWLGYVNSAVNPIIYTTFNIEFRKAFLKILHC
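DiscoveRx PathHunter D2 beta-arrestin cells (2,100/well) attached overnight, then compound-stimulated 90 min at 37 C in HBSS/10 mM HEPES/0.1% Tween-20 buffer; beta-galactosidase complementation read by luminescence after 1 h at ambient temperature. Dopamine 57 uM final (EC100) as control.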
D2 PAM = potentiates the human D2 dopamine receptor allosterically; DiscoveRx D2 beta-arrestin cells, luminescence, 90 min; 100% = 57 uM dopamine signal; potentiation, % (no concentration beside the values); actives 0.23% (n = 360,000); active = potentiation of 50% or more; inconclusive = 30% to 50%; inactive = 30% or less;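 note: compound concentration not given in the record; tested on top of an EC20 dose of dopamine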
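PathHunter beta-arrestin assay in DiscoveRx D2 cells. Compounds were added with an EC20 of dopamine (50 nM final) for 90 min at 37 deg C. Luminescence was read 1 h after detection reagent, with 57 uM dopamine as the EC100 control.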
Starred values were filed as active, the others as inactive; ? = inconclusive; · = not tested or not shown; & = joins results of further samples; [ ] = remark or other dose.

Each structure is followed by: D2 PAM, D2 ag, TRPML1 inh, PINK1 expr mod, Six1-Eya2 inh, TRPML1 agonist
c1ccc(-n2nnnc2SCc2ccccn2)cc1
→ 0.3, -1.7, 23.8, -1.4%, -0.3, -0.6
CCOC(=O)c1[nH]c2cc3c(cc2c1NC(=O)CN1CCc2ccccc2C1)OCO3
→ -1.6, -0.5, -2.5, 3.0%, -24.7, -0.4
O=C(NCC1CCCO1)C1CCN(C2CCN(Cc3cccs3)CC2)CC1 (stereo not given)
→ -14.5, 1.2, 19.0, -1.6%, -14.3, 0.3
Clc1ccccc1CNc1ncnc2c1nc1n2CCCC1
→ ·, ·, -20.2, 16.4%, ·, 1.9
Cc1ccccc1OCC(=O)NCCCNC(=O)c1ccncc1
→ -5.4, -4.6, 6.2, -0.8%, -1.9, 0.5
COCCCNC(=O)c1c(C)nn(-c2ccc(F)cc2)c1-n1cccc1
→ ·, ·, -18.5, 8.5%, ·, 2.1
COc1ccc(C)cc1NC(=O)c1cc(S(=O)(=O)NCCC2=CCCCC2)ccc1F
→ ·, ·, -6.8, 2.7%, ·, 1.1
O=C1O[C@@H](c2ccc(O)cc2)Cc2cccc(O)c21
→ -10.3, -5.5, 12.0, 3.5%, 1.3, -0.7
CC(C)=CC(=O)Nc1nnc(-c2ccccc2)s1
→ 2.7, -1.5, -3.0, 2.2%[38.3 µM], 3.8, 0.8
O=C(CSC(=S)N1CCCCC1)N1N=CCC1c1ccccc1 (stereo not given)
→ -7.9, -4.0, -0.8, -2.5%[38.3 µM], -0.5, -0.4
CCN(C(=O)COC(=O)/C(C#N)=C/c1cc(C)n(CCOC)c1C)c1c(N)n(Cc2ccccc2)c(=O)[nH]c1=O
→ -5.1, -1.7, -24.8, 0.7%, 1.0, 0.9
CCC(C)NC(=O)c1ccc2c(=O)n3c(nc2c1)CCCCC3 (stereo not given)
→ ·, ·, 10.0, 0.6%, ·, -0.5
COC(=O)c1[nH]c2ccc(Br)cc2c1NC(=O)CN1CCCCC1CCO (stereo not given)
→ -3.1, -3.8, -9.4, -1.6%, -2.8, 0.8
Cc1ccc2nc(/C(C#N)=C/c3ccc(-c4cccc(Cl)c4)o3)[nH]c2c1
→ ·, ·, -2.8, ?, ·, ?
COc1cccc(N2C(=O)N(Cc3ccc(C#N)cc3)c3ccccc3S2(=O)=O)c1
→ ·, ·, 4.9, 1.0%, ·, -0.1
CC(=O)c1cc(C)ccc1OC(=O)c1cccnc1
→ -16.6, 1.4, -6.5, -2.4%, -12.0, 0.5
Cc1cc(-c2nnc(CCC(=O)N(C)Cc3ccsc3)o2)no1
→ 1.8, -0.6, -10.9, 2.4%, 6.9, 1.3
COc1cccc(NC(=O)CS(=O)(=O)c2cccc3nsnc23)c1
→ 0.5, -0.7, -0.3, -0.3%, -2.3, 0.1
c1ccc(C[C@H]2CNCCN2CC2CCCCC2)cc1
→ -56.3, -3.4, 13.9, 1.1%, 1.2, -0.4
Cn1cnnc1SCc1ccc(C(=O)NN)cc1
→ -2.6, -0.2, 30.9, -1.5%, 2.3, 1.1
CC(C)C(NC(=O)OCc1ccccc1)C(=O)OCC(=O)N1CCCCC1 (stereo not given)
→ -16.4, -0.9, 0.3, 1.9%, -0.6, -0.2
CC1CCCCN1C(=O)Cn1c(=O)n(-c2ccc(Cl)cc2)c(=O)c2c3c(sc21)CCC3 (stereo not given)
→ ·, ·, 14.8, 3.0%, ·, -0.8
O=C(Nn1cnnc1)c1ccccc1CCc1ccccc1
→ -25.7, -5.4, 13.8, 0.9%, -0.4, -0.3
COc1ccc(-n2ncc3c(=O)n(CC(=O)N(C(C)C)C(C)C)cnc32)cc1
→ 0.0, -0.2, 3.2, -0.3%, -4.3, 0.4
CCOc1cc(/C=N/O)cc(Br)c1OC
→ -2.6, -0.4, 6.4, -1.2%[38.3 µM], -0.2, 6.2
COc1ccc(C(=O)NCC(=O)Nc2ccc(F)cc2)cc1OC
→ -4.0, -0.7, 1.0, 1.3%[38.3 µM], -4.7, 0.8
CC(=O)c1ccc(OC(C)C(=O)NCC2(N3CCOCC3)CCCCC2)cc1 (stereo not given)
→ -3.0, -8.8, -10.5, -1.5%, 0.3, -0.5
Cc1ccc(C(=O)OCC(=O)Nc2ccc3c(c2)OCCO3)cc1C
→ -16.6, -7.6, -2.9, 7.3%, 10.7, -0.1
CCCOc1ccc2c(=O)c(-c3cc(C(=O)OC)oc3C)c(C)oc2c1
→ -14.6, 2.5, 2.2, -2.1%[38.3 µM], -13.2, 5.1
O=C(Nc1ccc(N2CCOCC2)cc1)c1cccc(S(=O)(=O)N2CCCCC2)c1
→ -4.6, 1.9, 0.4, 0.3%, -1.6, 0.0

Reprinted from the part before: two entries, followed by the next part.
Each structure is followed by: D2 PAM, D2 ag, TRPML1 inh, PINK1 expr mod, Six1-Eya2 inh, TRPML1 agonist
CCCOc1ccc2c(=O)c(-c3cc(C(=O)OC)oc3C)c(C)oc2c1
→ -14.6, 2.5, 2.2, -2.1%[38.3 µM], -13.2, 5.1
O=C(Nc1ccc(N2CCOCC2)cc1)c1cccc(S(=O)(=O)N2CCCCC2)c1
→ -4.6, 1.9, 0.4, 0.3%, -1.6, 0.0
COc1ccc2oc(=Nc3ccc(C(=O)O)cc3)c(C(=O)NCc3ccco3)cc2c1
→ -4.3, 1.9, 4.3, -0.9%, -3.9, 1.1
Cc1cc([N+](=O)[O-])nn1Cc1ccccc1F
→ -3.3, -2.9, -3.8, -2.3%, -2.5, -0.4
Fc1ccccc1NC(=S)NCCc1cccc(Cl)c1
→ -8.3, 3.7, 8.4, 3.4%, 0.6, 2.8
CC(NC(=S)NC1CCCCC1)C(c1cccs1)N1CCOCC1 (stereo not given)
→ -1.7, 0.3, -12.1, -1.0%, -5.1, 1.3
O=C(Nc1ccc(S(=O)(=O)N2CCCCC2)cc1)C1CCCO1 (stereo not given)
→ -4.4, -1.7, -6.2, -0.5%, -2.2, -0.6
CCNC(=O)C(=O)Nc1cc2c3c(c1)CCN3C(=O)CC2
→ -1.9, -6.5, -6.4, 5.5%, 15.2, -0.4
C[C@@H]1CN([C@@H](C)CO)C(=O)c2cc(Br)cnc2O[C@H]1CN(C)C(=O)C1CCCCC1
→ -5.3, -3.0, 17.0, 2.1%, -18.4, -0.4
O=C1C2C3C=CC(CC3)C2C(=O)N1/N=C/c1ccco1 (stereo not given)
→ 11.3, -3.0, 9.6, 0.5%, -4.5, 0.4
CCCCn1c(CCC(=O)O)nc2cc(S(=O)(=O)N3CCCC3)ccc21
→ 10.3, -1.0, 14.1, -1.7%, 7.9, 0.2
O=C(c1ccccn1)N1CCCC(N2CCN(c3ccccc3)CC2)C1 (stereo not given)
→ -5.8, 0.8, -1.6, -0.4%, -0.3, -0.3
CCN(C(=O)COC(=O)c1ccc(=O)n(Cc2ccccc2)n1)C1CCCCC1
→ 2.8, -0.4, 5.7, 2.5%, -5.6, 0.8
CC(=O)Nc1ccc(/C=N/NC(=O)c2cc3cc(C)ccc3nc2C)cc1
→ -10.0, -0.4, 2.3, 5.9%[38.3 µM], ?, 3.8
COCCCNC(=O)C1CCN(c2nc3ccc(Cl)cc3[nH]2)CC1
→ ·, ·, 10.8, 1.7%, ·, 0.1
NCCCC[C@@H](C(=O)N1CCNCC1)n1cc(CCC(=O)O)nn1
→ -7.4, -1.2, -1.9, 1.7%, 4.0, 0.0
CCCCC(NC(=O)c1ccc(Cl)cc1)C(=O)O (stereo not given)
→ -1.8, -2.6, -4.4, ?, 0.0, -0.4
CCO[C@@H]1OC(C(=O)Nc2ccccc2)=C[C@H](C2CC2)[C@H]1CCCO
→ -8.6, 0.5, 11.7, -1.0%, 7.3, -0.5
O=C(COC(=O)c1n[nH]c2ccccc12)Nc1ccccc1Br
→ -21.2, 3.3, -4.5, 1.9%, -2.1, -0.2
N#Cc1c(N2CCCC2)nsc1-c1ccccc1
→ -9.5, -6.6, ·, -1.0%, -3.4, ·
CCCCn1c(CCNC(=O)CCC)nc2ccccc21
→ -9.7, -5.6, -4.1, -0.1%, -2.6, 0.0
Nc1nc(OCC2CCCCC2)c2[nH]cnc2n1
→ 0.7, -6.6, -1.1, 0.1%, 6.7, 0.0
CCN(CC)P(=O)(Nc1ccc(SC(F)F)cc1)c1ccc(N(C)C)cc1NC(=O)c1ccco1 (stereo not given)
→ -7.8, 6.6, 29.8, 0.4%, -23.3, 1.8
Cc1ccc(C(=O)Nc2nc(=O)n(C(=O)CC(C)C)s2)cc1
→ -7.9, -0.1, 11.8, 0.1%[38.3 µM], 1.3, 2.0
Cc1ccc(NS(=O)(=O)c2cc(-c3cnc(C4CC4)o3)ccc2C)cc1Cl
→ ·, ·, 31.6, 5.4%, ·, 2.0
Cc1ccc2nc(SCC(=O)NCCCN3CCCC3=O)[nH]c2c1
→ -3.1, -1.3, 1.8, -0.7%, -0.8, -0.1
CCc1ccc(OCc2nnc(SCC(=O)Nc3cccc(C(=O)N4CCOCC4)c3)o2)cc1
→ -4.9, -5.8, -13.9, -0.4%, 5.3, -0.1
Cc1ccc(S(=O)(=O)N2CCN3CCCC3C2)cc1 (stereo not given)
→ 5.0, 0.1, ·, 1.4%, 8.4, ·
O=C(NCCSCc1c(F)cccc1Cl)c1ccc(CN2CCOCC2)cc1
→ 8.9, -7.3, -2.8, -1.9%, 0.4, -0.5
Cc1ccc(N2CC(C)Cn3c2nc2c3c(=O)n(Cc3cccc(Cl)c3)c(=O)n2C)cc1 (stereo not given)
→ ·, ·, 0.2, 0.9%, ·, 0.1
COc1ccc(C(=O)c2[nH]c(N)c(C(N)=O)c2-c2ccc(OC)c(OC)c2)cc1
→ ·, ·, ·, -0.1%, -5.8, -0.2
c1ccc(CSc2nnc(-c3ccco3)n2Cc2ccco2)cc1
→ -1.1, 0.5, 11.3, -3.1%, -5.3, 0.1
Cc1ccccc1NC(=S)/C(=C(\[O-])c1cc(C)n(Cc2ccccc2Cl)c1C)[n+]1ccccc1
→ -18.0, -1.2, 1.9, 0.0%, -20.6, -0.1
Cc1sc2ncnc(NCC3COc4ccccc4O3)c2c1C (stereo not given)
→ -1.1, 0.7, 4.3, 6.1%, 2.8, 1.6
O=C(Nc1ccc(NC(=O)c2cc3ccccc3o2)cc1)c1ccccc1
→ ·, ·, -10.5, -0.4%, ·, -1.0
COc1cc(C(=O)NCc2ccc3c(c2)CCN3C(=O)c2ccncc2)cc(OC)c1OC
→ ·, ·, -5.2, 1.9%, ·, 1.7
Cc1sc(NC(=O)/C=C/c2ccco2)c(C(=O)OC(C)C)c1C
→ -6.8, -12.0, 12.1, 10.7%, 3.0, -0.3
COc1cccc(NC(=S)NC2CC3CCCC(C2)N3C2CCCC2)c1 (stereo not given)
→ 14.2, 7.5, 5.0, 3.8%, -7.8, 2.0
Cc1cc(C)nc(SCc2nnc(SCC(=O)Nc3nc(-c4ccccc4)cs3)n2-c2ccccc2)n1
→ -11.1, -4.5, -2.5, -1.5%, -15.9, -0.4
CCOc1nc(NCCN2CCOCC2)nc(NC(C)C)n1
→ -12.6, -3.9, -2.4, 1.5%, 5.6, -0.4
COc1cc(OC)c2c(-c3ccccc3)cc(=O)oc2c1C(CC(=O)N1CCCC1)c1ccc2c(c1)OCO2 (stereo not given)
→ -13.0, -2.6, 16.2&-0.8, 4.1%, -16.4, 1.5&0.0
